# Mtb H37Rv – Mycobacterium tuberculosis H37Rv growth inhibition, putative kinase inhibitor library, confirmatory dose response (AID 2842) | M. tuberculosis H37Rv growth inhibition; higher % means a stronger effect; some inactives read as strong as hits | inhibition, % at 10 µg/mL, or IC90 in µg/mL where a hit was titrated | 24,000 tested, 5.2% active;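 active = confirmed in a dose series; inconclusive = mostly over 85% at the one dose but not retested; inactive = below 85% or not confirmed; about a fifth of its hits are not listed in these tables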;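 note: bacteria incubated one week before Alamar blue readout; 0% = bacteria only wells and 100% = bacteria with high antibiotic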
# Active calls of the source: *; ? = inconclusive.
structure,Mtb H37Rv
CCS(=O)(=O)c1ccc(C(=O)Nc2nc3c(Br)cccc3s2)cc1,1.3%
O=C(CC1Sc2ccccc2NC1=O)Nc1ccc(Cl)cc1[N+](=O)[O-] (stereo unspecified),4.8%
CC(=O)c1ccc(NC(=O)CCCN2C(=O)/C(=C\c3ccco3)SC2=S)cc1,76.1%
CCCc1cc(=O)[nH]c2nnc(SCC(=O)NCc3ccco3)n12,1.6%
COc1ccc(CNC(=O)NC2CC(=O)N(c3ccccc3)C2)cc1 (stereo unspecified),-3.2%
COc1ccc(CNC(=O)CCCCCn2c(=O)[nH]c3ccsc3c2=O)cc1,-6.3%
COc1cc(C(=O)/C(=C/c2cccnc2)c2nc3ccccc3o2)cc(OC)c1OC,5.1%
Cn1c(=O)[nH]c(=O)c2c1nc(N1CCCCC1)n2CCCSc1nc2ccccc2s1,15.0%
CC(=O)c1sc(NC(=O)/C=C/c2coc3ccc(C)cc3c2=O)nc1C,-3.2%
Cc1ccc(-c2nc(Nc3cccc(Cl)c3)sc2C)cc1,14.1%
Cc1ccc(Nc2nc(NCCN3CCOCC3)nc3nccnc23)cc1,-2.8%
CN(C)CCCNC(=O)C(=O)Nc1cc2c3c(c1)CCC(=O)N3CCC2,-2.9%
Cc1ccc([N+](=O)[O-])cc1S(=O)(=O)N(c1ccc(Cl)cc1)C(F)F,8.9%
CC(=C/c1ccccc1)/C=N/NC(=O)CSc1n[nH]c(=O)[nH]c1=O,0.7%
Cc1cc(=O)oc2cc(OCc3ccccc3F)c(Cl)cc12,-16.0%
Cn1c(=O)c2c(SCC(=O)Nc3cccc(C(F)(F)F)c3)nc(-c3ccco3)nc2n(C)c1=O,6.4%
COc1ccccc1Cn1cc2c(-c3ccc(C)c(C)c3)nnc-2c2cc(OC)c(OC)cc21,14.7%
CCOc1ccc(N2CC(NC(=O)c3ccccc3Br)CC2=O)cc1 (stereo unspecified),-2.6%
CCCNS(=O)(=O)c1ccc2nc(NC(=O)c3cncc(Br)c3)sc2c1,4.7%
CC(=O)c1ccc(N2CCN(C(=O)NC3CC(=O)N(c4ccc5c(c4)OCCO5)C3)CC2)cc1 (stereo unspecified),13.7%
CC(=O)Nc1cccc(NC(=O)c2c[nH]c(=O)n(-c3ccc(F)c(Cl)c3)c2=O)c1,0.8%
COc1ccc(Cl)cc1NC(=O)C(C)Sc1ncnc2sc3c(c12)CCC(C)C3 (stereo unspecified),-5.6%
O=c1[nH]cc(S(=O)(=O)Nc2ccc3c(c2)OCCO3)c(=O)[nH]1,-9.1%
COc1ccc(-c2nnc3c4cc(F)ccc4n(Cc4ccc(C)cc4)cc2-3)cc1,10.4%
O=C(Nc1ccc2c(c1)OCCO2)NC1CC(=O)N(c2ccc(F)cc2)C1 (stereo unspecified),-1.1%
O=C(c1ccc(F)cc1)N1CCN(c2ccc(N3CCOCC3)nn2)CC1,-8.8%
O=C(Nc1cc2c3c(c1)CCC(=O)N3CCC2)c1ccc(F)c(F)c1,34.3%
CCc1ccc(NS(=O)(=O)c2c[nH]c(=O)[nH]c2=O)cc1,-5.5%
Cc1ccc(N2C(=O)CC(Sc3ncccc3C(=O)O)C2=O)c(C)c1 (stereo unspecified),-0.9%
O=C(Oc1ccc2ccc(=O)oc2c1)c1ccc(Cl)cc1,-7.8%
NC(=O)CSc1ccc(-c2ccc3c(c2)OCO3)nn1,-0.1%
CCCn1c2c(c(=O)[nH]c1=O)C(c1ccccc1)C1=C(COC1=O)N2 (stereo unspecified),7.2%
O=C(/C=C1\SC(=O)NC1=O)Nc1ncc(Cc2ccc(Cl)cc2)s1,-2.0%
CCC1C(C#N)=C(N)OC2=C1C(=O)CC(C)(C)C2 (stereo unspecified),4.3%
Cc1cc(OC(=O)c2ccccc2C)c([N+](=O)[O-])c(=O)[nH]1,-7.9%
CCOc1cccc(-c2nc(C(N)=O)c3[nH]c(=O)n(-c4ccccc4F)c3n2)c1O,-5.8%
C=CCNC(=O)CSc1nc2sc(C)c(C)c2c(=O)[nH]1,-10.8%
O=C(Nc1cccc(F)c1)c1oc2ccccc2c1NC(=O)c1cccc2ccccc12,1.3%
O=C(Cc1cc(=O)[nH]c(=O)[nH]1)NCc1ccc(F)cc1,-3.8%
O=C1CCc2cc(S(=O)(=O)Nc3ccc(C(F)(F)F)cc3)cc3c2N1CCC3,-2.5%
O=C(/C=C/c1cccs1)Nc1nncs1,-2.3%
COc1ccc(CCNC(=O)Cn2cnc3c(nnn3-c3cccc(Cl)c3)c2=O)cc1OC,-3.9%
CC(=O)N(Cc1ccccc1)c1nnc(C23CC4CC(CC(C4)C2)C3)s1,-4.2%
CC(=O)Nc1ccc(Nc2cc(C)nc3c(-c4ccccc4Cl)cnn23)cc1,1.5%
COc1ccc(-n2c(SCc3nc4ccccc4s3)nnc2-c2cccs2)cc1,1.5%
Nc1nc(SCC(=O)Nc2cc(C(F)(F)F)ccc2Cl)[nH]c(=O)c1NC(=O)c1ccc(F)cc1,-1.9%
O=C1CC(NS(=O)(=O)c2cccs2)CN1c1ccc(Cl)cc1 (stereo unspecified),6.8%
Nc1ncnc(NNC(=O)CNC(=O)COc2ccccc2)c1[N+](=O)[O-],-3.7%
COc1ccc(C(=O)CSc2nccn(-c3ccc(Cl)cc3)c2=O)cc1,-1.2%
CCc1nnsc1C(=O)Nc1c(C(=O)Nc2cccc(Cl)c2)oc2ccccc12,4.3%
NS(=O)(=O)c1ccc2nc(NC(=O)c3cccc(F)c3)sc2c1,6.3%
CCOc1cccc2c1OC(c1ccncc1)N1N=C(c3cccc(O)c3)CC21 (stereo unspecified),-18.4%
CCS(=O)(=O)c1cccc(C(=O)Nc2sc3c(c2C(N)=O)CCN(Cc2ccccc2)C3)c1,0.8%
COc1ccc(C(=O)Nc2c(N)nc(SCC(=O)OCc3ccccc3)[nH]c2=O)cc1OC,-0.8%
Cc1c(C(N)=O)sc2ncn(CC(=O)Nc3cc(Cl)ccc3Cl)c(=O)c12,-17.0%
NC(=O)c1ccsc1NC(=O)c1ccc2c(c1)CCCC2,7.2%
CCn1c2c(c(=O)[nH]c1=O)C(c1ccc(Cl)cc1)C1=C(COC1=O)N2 (stereo unspecified),5.8%
O=C(CSc1ccc2nnc(-c3ccncc3)n2n1)Nc1ccccc1,-8.3%
CCc1cccc(OCC(O)Cn2c(N/N=C/c3cccnc3)nc3c2c(=O)n(C)c(=O)n3C)c1 (stereo unspecified),6.7%
COC(=O)COc1ccc2c(-c3cccc([N+](=O)[O-])c3)cc(=O)oc2c1,-22.9%

# Further results follow.
SMILES,Mtb H37Rv
COc1ccc(Cn2cc3c(-c4ccc(OC)cc4)nnc-3c3cc4c(cc32)OCO4)cc1,32.6%
CCN1CCN(c2nc3c(c(=O)[nH]c(=O)n3C)n2CCSc2ncccn2)CC1,0.2%
COc1cccc(OCC(=O)Nc2c(C(=O)Nc3ccc(F)c(Cl)c3)oc3ccccc23)c1,10.7%
Cc1nnc(NCc2ccccc2Cl)[nH]c1=O,-0.4%
CCOc1cc(C(=O)NCCc2cc3ccc(C)cc3[nH]c2=O)cc(OCC)c1OCC,6.2%
COc1cccc(NC(=O)c2sc3nc4c(c(-c5cccs5)c3c2N)CCCCC4)c1,-2.4%
CC(C)Sc1nnc(CSc2ncccn2)n1-c1ccc(F)cc1,9.3%
O=C(Cc1ccc(-c2ccccc2)cc1)Nc1nnc2n1CCS2,13.5µg/mL*
O=C(CSc1cnc2ccccc2n1)NCc1ccc2c(c1)OCO2,4.6%
CC(Nc1n[nH]c(=O)[nH]c1=O)C(=O)N/N=C/c1ccc(Cl)cc1Cl (stereo unspecified),-6.3%
Oc1ccc(C2=NN3C(C2)c2cc(Br)ccc2OC3c2ccncc2)c(O)c1 (stereo unspecified),4.5%
COc1nn(C)cc1C(=O)Nc1cccc(C(F)(F)F)c1,6.9%
COc1ccc2nc(N(CCCn3ccnc3)C(=O)c3cccc(OC)c3OC)sc2c1,11.3µg/mL*
COc1cccc(/C(O)=C2\C(=O)C(=O)N(CCCn3ccnc3)C2c2ccccc2F)c1 (stereo unspecified),-13.4%
CCOC(=O)C1CCCN(C(=S)Nc2ccc(OC(F)F)cc2)C1 (stereo unspecified),-14.6%
CCN(CC)S(=O)(=O)c1ccc(C(=O)Nc2cc(Cl)ccc2Cl)cc1,1.2%
Cc1cc2cc(CCNC(=O)c3c(F)cccc3F)c(=O)[nH]c2cc1C,-6.1%
O=C(CCCCCN1C(=O)c2ccccc2C1=O)Nc1cccc(C(F)(F)F)c1,-13.4%
O=C(Nc1nc2ccc(Cl)cc2s1)C1COc2ccccc2O1 (stereo unspecified),?
O=C(Nc1nnc(-c2cccnc2)o1)c1cccc(F)c1,82.0%

# Entries from the list above containing two or more sulfur atoms, in the order listed:
SMILES,Mtb H37Rv
CCS(=O)(=O)c1ccc(C(=O)Nc2nc3c(Br)cccc3s2)cc1,1.3%
CC(=O)c1ccc(NC(=O)CCCN2C(=O)/C(=C\c3ccco3)SC2=S)cc1,76.1%
Cn1c(=O)[nH]c(=O)c2c1nc(N1CCCCC1)n2CCCSc1nc2ccccc2s1,15.0%
CCCNS(=O)(=O)c1ccc2nc(NC(=O)c3cncc(Br)c3)sc2c1,4.7%
COc1ccc(Cl)cc1NC(=O)C(C)Sc1ncnc2sc3c(c12)CCC(C)C3 (stereo unspecified),-5.6%
O=C(/C=C1\SC(=O)NC1=O)Nc1ncc(Cc2ccc(Cl)cc2)s1,-2.0%
C=CCNC(=O)CSc1nc2sc(C)c(C)c2c(=O)[nH]1,-10.8%
O=C(/C=C/c1cccs1)Nc1nncs1,-2.3%
COc1ccc(-n2c(SCc3nc4ccccc4s3)nnc2-c2cccs2)cc1,1.5%
O=C1CC(NS(=O)(=O)c2cccs2)CN1c1ccc(Cl)cc1 (stereo unspecified),6.8%
NS(=O)(=O)c1ccc2nc(NC(=O)c3cccc(F)c3)sc2c1,6.3%
CCS(=O)(=O)c1cccc(C(=O)Nc2sc3c(c2C(N)=O)CCN(Cc2ccccc2)C3)c1,0.8%
COc1cccc(NC(=O)c2sc3nc4c(c(-c5cccs5)c3c2N)CCCCC4)c1,-2.4%
CC(C)Sc1nnc(CSc2ncccn2)n1-c1ccc(F)cc1,9.3%

# (further entries)
SMILES,Mtb H37Rv
Cc1ccc2nc(NC(=O)CSc3nnc(CNC(=O)c4cccs4)o3)sc2c1,-4.7%
O=C(CSc1nnc2[nH]c(=O)ccn12)Nc1ccccc1F,-3.4%
Cc1ccc(-c2[nH]c3ccccc3c2SCCNC(=O)c2ccc(-c3ccccc3)cc2)cc1,22.7%
Cc1ccc(C)c2sc(N(CCCn3ccnc3)C(=O)c3ccc(F)cc3)nc12,4.35µg/mL*
COc1ccc2c(c1)c(=O)c(C(=O)c1ccccc1)cn2Cc1ccc(F)cc1,8.1%
COc1cc(/C=C2\SC(=S)N(c3cccc(O)c3)C2=O)ccc1OCC(=O)O,-20.2%
Fc1ccc(Nc2nc(Nc3cccc(F)c3)nc3nccnc23)cc1,60.6µg/mL*
NC(=O)c1ccc(NC(=O)CSc2nnc(CNC(=O)c3ccccc3)o2)cc1,-3.8%
CCOc1ccc(Nc2cc(C)c(C#N)c3nc4ccccc4n23)cc1,-9.1%
CCOC(=O)c1sc(NC(=O)Nc2ccc([N+](=O)[O-])cc2)c(SC#N)c1C,-0.2%
CS(=O)(=O)c1ccc2nc(NC(=O)c3ccccc3Cl)sc2c1,12.0%
Cc1cc(C)cc(NC(=O)CSc2[nH]c(=O)ncc2C)c1,-26.4%
CCOC(=O)c1nn(-c2ccc(OC)cc2)c(=O)c2c(NC(=O)c3ccc(OC)cc3)scc12,12.9%
CCOC(=O)c1nn(-c2ccc(Cl)cc2)c(=O)c2c(NC(=O)C3CCCC3)scc12,0.6%
Nc1nc(SCc2ccccc2F)[nH]c(=O)c1NC(=O)c1ccco1,-3.5%
COc1ccc(-c2cc(C(=O)O)[nH]n2)c(OC)c1,-14.4%
COc1ccc2nc(-c3ccc(C)c(NC(=O)Cc4ccc(F)cc4)c3)cn2n1,13.9%
COc1ccc(S(=O)(=O)Nc2cc(C)on2)cc1,-3.8%
Nc1cc(=O)[nH]c(SCC(=O)NCc2cccnc2)n1,-2.3%
CCOC(=O)N1CCN(c2ncnc3c2cnn3-c2cc(Cl)ccc2C)CC1,65.1%
COc1cccc2sc(NNC(=O)c3cc(=O)c4ccccc4o3)nc12,25.5µg/mL*
CC(C)(C)C(=O)Nc1sc2c(c1C#N)CCN(Cc1ccccc1)C2,-3.0%
COC(=O)C1=C(C)Nc2nc(SCc3ccccc3F)[nH]c(=O)c2C1c1ccccc1 (stereo unspecified),22.7%
COc1cc2c(=O)c(C(=O)c3ccc(F)cc3)cn(Cc3ccc(C)cc3)c2cc1OC,7.24µg/mL*
Cc1ccnc(SCCn2c(N3CCN(c4cccc(Cl)c4)CC3)nc3c2c(=O)n(C)c(=O)n3C)n1,1.7%
O=C(CSc1nc2c([nH]c3ccccc32)c(=O)n1-c1ccc(F)cc1)Nc1nc2ccccc2s1,19.3%
COc1ccc(C(=O)CSc2nnc3ccc(-c4ccco4)nn23)cc1,13.2%
CN1CCN(c2nc3c(c(=O)[nH]c(=O)n3C)n2CCSc2nc3ccccc3s2)CC1,6.6%
Cc1cc(NC(=O)CSc2c(-c3ccccc3)[nH]c3ccccc23)no1,8.2%
O=C(Nc1ccccc1Br)c1csc2c1CCCC2,-2.1%
CCn1c2c(c(=O)[nH]c1=O)C(c1cccnc1)C1=C(CC(C)(C)CC1=O)N2 (stereo unspecified),-5.0%
O=C(Nc1nnc(-c2cc(Cl)ccc2Cl)o1)c1cc(Cl)ccc1Cl,0.49µg/mL*
CC(C)C1C(C#N)=C(N)Oc2n[nH]c(-c3ccccc3)c21 (stereo unspecified),13.8%
CCc1cccc(-n2ccn(Cc3cccc(F)c3)c(=O)c2=O)c1,-9.4%
CN(C)c1nc2c(c(=O)[nH]c(=O)n2C)n1CC(=O)c1ccccc1,-9.5%
CCn1ccc2c(OCC(=O)NC)cccc2c1=O,0.4%
CC(C)c1nnc(NC(=O)c2ccccc2C(F)(F)F)s1,3.5%

# Not all compounds are listed; rates above refer to the full screens.
